CSC inhib – blocks cancer stem cells; cancer stem cell-like cells viability, luminescence; inhibition, % at 7.5 µM; 300,000 compounds, 1.1% hits; AID 2717;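 active = mean at 75% or more and at least half the replicates too; inconclusive = mean and replicates disagree; tested in HMLE shEcad cells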;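 note: 0% = median of negative and 100% = median of positive control wells; the first replicate is given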
Rce1 inhib – inhibitors of yeast Ras-converting enzyme. Q03530. yeast membranes, quenched prenylated peptide cleavage fluorescence. 290,000 compounds, 0.27% hits. calls only;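 active = fall in fluorescence gain of 50% or more versus controls, with final raw signal at or below 3038400; inconclusive = same 50% fall but final raw signal above 3038400; inactive = fall in fluorescence gain under 50%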;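 note: plate controls were neutral control wells for no effect and wells lacking membranes for full effect; tested at 10 µM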
MT1-MMP act inh – inhibitors of human MT1-MMP activation; AID 651647; 360,000 compounds, 0.061% hits; HT1080 RFP-PRO-GFP cells, GFP/RFP ratio fluorescence, overnight; percent of plate control window, DMSO zero; P50281; GFP/RFP ratio change, % at 20 µM;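 active = GFP/RFP ratio change of at least 30% with cell ATP level not reduced by more than half and red fluorescence within 50% of control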; note: strong numbers were not always called active
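Assay system: RFP-PRO-GFP reporter HT1080 cells; read-out basis: GFP/RFP fluorescence ratio; benchmarks: DMSO wells and RFP-L50D-GFP cells; doses: 20 µM single dose, 1% DMSO; schedule: overnight cell settling, then overnight compound exposure, 37 °C, 5% CO2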
Env fusion inh – HIV envelope-mediated fusion inhibition; 360,000 compounds, 1.1% hits; HeLa-JRFL Env/CEM21 cell fusion, luciferase; inhibition, % at 12.3 µM;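 active = mean replicate inhibition score of at least 50 and every replicate individually at or above 50; inconclusive = only one of the two criteria met; inactive = mean below 50 and not all replicates reaching 50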;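 note: 0% = plate neutral controls and 100% = maraviroc near 300 nM; one replicate is shown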
UUG fidelity – alters start codon recognition fidelity in yeast | 350,000 compounds, 0.13% hits | S. cerevisiae UUG-firefly luciferase reporter, luminescence/redox ratio | activity score, % at 18.7 µM;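 active = replicate mean at a twofold rise or more, about +100% in these data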;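 note: firefly luciferase made from a UUG start codon reports start codon fidelity; reporter light over untreated wells divided by growth signal over untreated wells; some hits fall short of that in this replicate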
eIF4H inh – inhibitors of RNA binding by human eIF4H; Q15056; eIF4H fluorescence polarization binding assay; inhibition, % at 35 µM; 290,000 compounds, 0.94% hits;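 active = 50% or more with normal probe brightness, or confirmed in later tests; inconclusive = above 50% with abnormal brightness, or retests that disagree; inactive = below 50% or failed in later tests; about a fifth of its hits are not listed in these tables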;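 note: calls also rest on retests at 20 µM and on dose response follow-up; 0% = protein and probe with vehicle and 100% = probe without protein; strong numbers were not always called active; many hits fall short of the cut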
PABP FP inh – PABP-poly(A) binding inhibition. 290,000 compounds, 1% hits. PABP-poly(A) RNA binding, fluorescence polarization. inhibition, % at 35 µM. AID 2014;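 active = 50% or more with normal probe brightness, or confirmed in later tests; inconclusive = above 50% with abnormal brightness, or retests that disagree; inactive = below 50% or failed in later tests; about a fifth of its hits are not listed in these tables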;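 note: calls also rest on retests at 20 µM and on dose response follow-up; controls were probe without protein and protein plus probe with vehicle; some compounds called inactive have numbers as strong as hits; many hits fall short of the cut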
Target sequence (P11940 whole entry, looked up): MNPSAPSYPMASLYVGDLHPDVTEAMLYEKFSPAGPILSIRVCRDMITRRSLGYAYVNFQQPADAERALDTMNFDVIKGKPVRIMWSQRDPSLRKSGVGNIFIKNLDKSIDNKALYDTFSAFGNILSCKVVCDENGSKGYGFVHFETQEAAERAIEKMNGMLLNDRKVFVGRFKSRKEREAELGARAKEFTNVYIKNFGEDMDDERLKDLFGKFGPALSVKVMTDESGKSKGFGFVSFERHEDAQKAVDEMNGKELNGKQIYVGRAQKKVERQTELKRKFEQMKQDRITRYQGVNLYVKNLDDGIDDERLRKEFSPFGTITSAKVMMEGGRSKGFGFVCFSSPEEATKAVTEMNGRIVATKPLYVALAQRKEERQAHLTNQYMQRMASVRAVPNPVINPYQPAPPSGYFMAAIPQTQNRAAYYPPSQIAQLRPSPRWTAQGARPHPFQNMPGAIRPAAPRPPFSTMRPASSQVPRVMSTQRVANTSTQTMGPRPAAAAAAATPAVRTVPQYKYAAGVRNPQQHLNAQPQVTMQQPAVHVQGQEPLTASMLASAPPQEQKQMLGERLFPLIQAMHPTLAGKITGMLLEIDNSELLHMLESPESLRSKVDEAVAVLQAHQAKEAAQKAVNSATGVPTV
eIF4H inh retest – recorded beside eIF4H inh, whose call it bears; inhibition, %; compound at 20 µM; confirmation average;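 mean of two retest wells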
PABP FP inh retest – further read-out of PABP FP inh, marked with its call; inhibition, %; compound at 20 µM; confirmation repeats;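 mean of two retest wells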
MT1-MMP act inh RFP – further read-out of MT1-MMP act inh, marked with its call; RFP signal change, %; measured here: RFP expression control read;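 0 = vehicle wells; hits needed this value within 50% of zero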
* hit, by the source's call; i = inactive; ? = inconclusive; / = no result given.

SMILES	CSC inhib	Rce1 inhib	MT1-MMP act inh	MT1-MMP act inh RFP	Env fusion inh	UUG fidelity	eIF4H inh	PABP FP inh	others
CCOC(=O)C1CCCN(C2CCN(Cc3nc(Cc4ccccc4)no3)CC2)C1 (stereo not drawn)	-5	i	0	3	-1	/	5	-4
Cc1ccc(C2CC2c2n[nH]c(=S)n2-c2cccc(C)c2)cc1 (stereo not drawn)	33	i	1	-2	8	/	1	-6
CCCCCC/C(=N/O)c1ccccn1	33	i	1	4	-20	-28	-4	-3
COCCCn1c(SCC(=O)NC2CCCCC2)nc2ccccc2c1=O	-15	i	5	2	5	-12	-3	5
CC1=NNC(=O)c2ccccc2O1	-4	i	1	4	4	-10	0	5
COc1cc(-c2csc(NC3CCCCC3)n2)cc(OC)c1OC	-5	i	-1	-1	-12	-2	0	2
CN(C)c1nc(N)nc(CSc2nnnn2-c2ccccc2)n1	-13	i	1	-1	-4	-8	-5	0
CCn1c(-c2csc(C(C)C)c2)n[nH]c1=S	-17	i	2	3	-36	-28	12	15
CC1CCN(Cc2ccc(NC(=O)CC3Oc4ccccc4NC3=O)cc2)CC1 (stereo not drawn)	-12	i	1	7	-1	4	-5	-5
Cc1cc(C)n(-c2ccc3nncn3n2)n1	-3	i	6	2	-35	/	5	10
CCCCC(CC)CNC(=O)CCS(=O)(=O)c1cccc2nsnc12 (stereo not drawn)	11	i	0	-3	-34	-13	8	-5
O=C(CNc1ccc(Cl)cc1)c1ccc(Br)cc1	40	i	3	-1	-14	-7	5	-13
CN(C(=O)c1ccc(C#N)cc1)c1nnc(-c2ccccn2)s1	/	i	-1	-1	/	0	-10	-9
C=CCSc1nc2ccccc2n2cnnc12	-9	i	4	3	6	-13	-8	-6
COc1ccc(C(=O)C2CCN(S(=O)(=O)c3ccc4c(c3)OCCO4)CC2)cc1	2	i	-5	-8	33	-2	-4	-2
Nc1ccn(-c2ccccc2)c(=O)c1	-36	i	6	7	/	-16	17	1
Cc1c(-c2ccc(Cl)cc2)[n+](=O)c(-c2ccccc2)cn1[O-]	-8	i	3	-1	-4	-2	-2	-6
COc1cccc(-c2cc(C(=O)N3CCN(Cc4ccccc4)CC3)no2)c1	6	i	-1	2	/	-1	-5	0
CC1(C(=O)NCc2cccnc2)CCC(=O)N1CCc1ccccc1 (stereo not drawn)	10	i	-2	3	-42	7	5	-10
COc1ccc(/C=C/C(=O)NC(=S)NNC(=O)c2cccnc2)cc1OC	-9	i	1	3	-13	/	14	-4
Cc1ccc(OCc2ccc(C(=O)N3CCOCC3)cc2)cc1C	8	i	5	-6	/	-20	3	9
CCc1nc(SCC(=O)Nc2ccccc2)c2c(=O)n(C)c(=O)n(C)c2n1	8	i	-3	3	-7	-11	5	4
COc1cc(NC(=O)CCN2CC(C)OC(C)C2)cc(OC)c1 (stereo not drawn)	-4	i	-5	-1	11	-6	-2	-6
Oc1ccc(/C=N/n2cnn(Cc3ccccc3Cl)c2=S)c(O)c1	78*	i	1	2	-12	/	-3	-4
COC(=O)c1ccc(CSc2n[nH]c(=S)s2)o1	-9	i	-4	3	/	-18	-11	10

Three compounds out of the list, ordered by number of heavy atoms, low to high.
SMILES	CSC inhib	Rce1 inhib	MT1-MMP act inh	MT1-MMP act inh RFP	Env fusion inh	UUG fidelity	eIF4H inh	PABP FP inh	others
COC(=O)c1ccc(CSc2n[nH]c(=S)s2)o1	-9	i	-4	3	/	-18	-11	10
CCCCC(CC)CNC(=O)CCS(=O)(=O)c1cccc2nsnc12 (stereo not drawn)	11	i	0	-3	-34	-13	8	-5
COCCCn1c(SCC(=O)NC2CCCCC2)nc2ccccc2c1=O	-15	i	5	2	5	-12	-3	5

Carrying on:
SMILES	CSC inhib	Rce1 inhib	MT1-MMP act inh	MT1-MMP act inh RFP	Env fusion inh	UUG fidelity	eIF4H inh	PABP FP inh	others
CCNS(=O)(=O)c1ccc(CCC(=O)NCCc2ccc(OC)cc2)cc1	5	i	8	5	1	-22	-2	-11
COc1ccc(CCNC(=O)CNC(=O)N2CC(=O)Nc3ccccc32)cc1	/	/	1	-2	5	-7	/	/
CC(=O)Nc1ccc(CN(C)c2c(C)nc3ccc(C(=O)NCCCN4CCCC4=O)cn23)cc1	/	/	-1	5	-17	-14	/	/
CCCCCC(=O)Nc1ccc(Cc2ccncc2)cc1	44	i	6	4	/	17	-4	-13
COc1ccc(N2CCN(C(=O)C3CCN(S(=O)(=O)c4ccc(C)cc4)CC3)CC2)cc1	-9	i	-9	-6	15	-11	9	-5
CSc1ncccc1C(=O)OCC(=O)N(C)C1CCS(=O)(=O)C1 (stereo not drawn)	18	i	4	4	/	/	-11	6
CCN(CC(=O)Nc1ccc(OC)cc1)C(=O)c1cc2c(s1)CCCCC2	0	i	6	0	/	/	/	/
Nc1ncnc2c1C(c1ccccc1)c1c(ccc3ccccc13)O2 (stereo not drawn)	/	/	-6	-12	29	-20	/	/
CCC(C)(C)NC(=O)C(c1ccc(C)o1)N(Cc1ccc2c(c1)OCO2)C(=O)c1snc(C(N)=O)c1N (stereo not drawn)	5	i	-7	-7	33	-18	-10	10
CCOc1cc(N2CCOCC2)c(OCC)cc1NC(=O)[C@H](C)NC(=O)c1ccco1	-11	i	-1	2	19	-12	8	-1
CN(Cc1ccccc1)C(=O)c1ccc(COc2ccccc2)cc1	6	/	0	-11	-41	-7	-8	2
CCCn1c(-c2ccc[nH]c2=O)nc2cc(C)c(C)cc21	8	i	4	8	-3	/	-7	-4
C=CCOc1ccc(C(c2c(O)nc(SC)[nH]c2=O)c2c(O)nc(SC)[nH]c2=O)cc1	-6	i	-3	3	7	-25	/	/
CNc1nc(Nc2ccccc2)nc(OCC(F)(F)F)n1	1	i	1	-1	-5	1	10	9
O=C(Nc1ccc(Cn2cccn2)cc1)c1ccc(COc2cccc(Br)c2)cc1	99*	i	1	-17	?	-11	-11	14
COc1ccc(S(=O)(=O)NCC(=O)N(CC(=O)NCc2ccco2)Cc2ccc(F)cc2)cc1	-1	i	2	-1	14	-3	-3	14
CCOC(=O)CCc1nc2ccccc2[nH]c1=O	0	i	-1	-5	-4	-16	-10	-2
N#Cc1ccccc1S(=O)(=O)Nc1ccc2c(c1)OCCO2	-2	i	0	-5	-5	-7	-2	3
CSc1nnc(C2CCN(CC(=O)Nc3ccccc3N3CCOCC3)CC2)n1C	/	i	1	-2	2	-3	50	10
O=C(COc1ccc(F)cc1)Nc1nc(-c2ccccn2)cs1	17	i	-2	3	36	-48	/	/
C(=Nc1ccc(Nc2ccccc2)cc1)c1ccc2ccccc2c1	6	/	44*	17*	/	/	8	-3
CN(CC1CCCO1)S(=O)(=O)c1ccc(C(=O)Nc2nc3cc4c(cc3s2)OCO4)cc1 (stereo not drawn)	31	i	18	-30	57*	-9	0	-6
CCN(CC(=O)Nc1ccc(Cl)c(C(F)(F)F)c1)CC(=O)NC1CCS(=O)(=O)C1 (stereo not drawn)	-5	i	1	-3	13	/	4	4
CCC(C)Nc1nc(CN2CCOCC2)nc2sc3c(c12)CCC3 (stereo not drawn)	-10	i	2	6	/	/	-1	-4
N=c1oc2ccc(Br)cc2cc1C(=O)NCc1ccc(F)cc1	2	i	-3	1	-7	-6	-2	18
(next part)
SMILES	CSC inhib	Rce1 inhib	MT1-MMP act inh	MT1-MMP act inh RFP	Env fusion inh	UUG fidelity	eIF4H inh	PABP FP inh	others
O=C(Oc1ccc(Cl)c2cccnc12)N1CCOCC1	-9	i	4	1	-70	-4	1	-5
COC(=O)Cc1c(C)c2ccc(OCC(=O)N3CCCC(C)C3)c(C)c2oc1=O (stereo not drawn)	10	i	2	-14	9	11	-5	1
CC(C)(C)CC(=O)NC(=S)Nc1ccccc1[N+](=O)[O-]	-5	i	1	-2	4	/	-6	-1
CC(C)(C)C(=O)NC(=S)Nc1cccc(C(=O)O)c1	3	i	0	1	-47	/	2	-2
CCOc1cc(N2CCOCC2)c(OCC)cc1NC(=O)c1cc(C)nc2ccccc12	5	i	0	-3	6	/	-4	2
COc1ccc(CNC(=O)CS(=O)Cc2nc(-c3ccc(C)cc3)oc2C)cc1 (stereo not drawn)	-2	i	-1	-6	-15	-7	-6	0
O=c1n(-c2cccc(Cl)c2)c(=O)n2n1CCC2	-8	i	9	8	-17	-24	-11	-8
Cc1ccc(C)c(N2CCN(C(=O)c3ccc(CS(=O)Cc4ccc(Cl)cc4)o3)CC2)c1 (stereo not drawn)	6	i	/	/	9	-6	-6	5
CCOC(=O)Cc1csc(NC(=O)COc2ccc(N(C)S(=O)(=O)c3cccs3)cc2)n1	7	i	0	-7	/	-16	-6	-5
O=C(Nc1cccc(S(=O)(=O)NC2=NCCCCC2)c1)c1ccc(Cl)cc1	/	/	-6	-30	13	8	/	/
CCN(C(=S)Nc1cccnc1)c1cccc2ccccc12	-7	i	-1	12	-2	/	?	-3
O=C(CSc1nnc(-c2ccncc2)o1)N1CCCC1	-10	i	0	2	4	/	-4	20
O=C1C2CCCCN2C(=O)N1CCN1CCN(c2ccc(F)cc2)CC1 (stereo not drawn)	/	/	3	-2	-7	-17	/	/
CC(On1nnc2ccccc21)C(=O)N1CCN(Cc2ccccc2)CC1 (stereo not drawn)	1	i	2	0	-3	-4	-8	-6
O=C(NNC(=S)NC(=O)c1ccccc1)c1ccc(O)cc1	8	i	3	5	4	-15	8	-10
CN(CC(=O)Nc1ccccc1C(=O)N1CCCC1)S(=O)(=O)c1ccc(Br)cc1	-10	i	-4	-2	/	/	3	-2
CN(CCOC(=O)/C=C/c1ccco1)Cc1ccccc1	-1	i	-2	3	-5	/	90*	46*	eIF4H inh retest=58*;PABP FP inh retest=57*
COC(=O)C(CO)NC(=O)C(C)NC(=O)CNC(=O)OCc1ccccc1 (stereo not drawn)	-14	i	-1	3	12	/	3	4
CNC(=O)c1nc(C)n(-c2cc(Cl)cc(Cl)c2)n1	-12	i	-2	0	/	-5	-8	-4
CCOc1cc(/C=N/NC(=O)c2ccccn2)ccc1OC(=O)c1ccc(F)cc1	-5	i	3	3	-3	-16	-12	2
CCOC(=O)N1CCC(NC(=O)CCN2C(=O)COc3ccccc32)CC1	-3	i	4	7	/	-2	-9	2
O=C(O)C1CCN(C(=O)NC2CCCCC2)CC1	3	i	2	1	/	/	-3	-1
COc1cccc(/C=C2\SC(=S)N(NS(=O)(=O)c3ccc(C)cc3)C2=O)c1OC	3	i	0	6	-2	/	5	8
CCc1nnc(NC(=O)c2cc(-c3ccncc3)nc3ccccc23)s1	7	i	-1	-4	-16	-16	-19	6
Cc1ccc(NC(=O)CSC2=NN3CCCC(=O)N=C3S2)c(C)c1	-11	i	1	2	-2	0	11	1
Remaining list, next part
SMILES	CSC inhib	Rce1 inhib	MT1-MMP act inh	MT1-MMP act inh RFP	Env fusion inh	UUG fidelity	eIF4H inh	PABP FP inh	others
CC1CCCN(C(=O)c2ccc3c(c2NCCO)C(=O)c2ccccc2C3=O)C1 (stereo not drawn)	10	i	27	17	/	/	-8	4
CCOC(=O)c1sc(NC(=O)CN2CC(C)OC(C)C2)nc1C (stereo not drawn)	27	i	-1	0	-9	-17	-6	4
O=C(O)CCN1C(=O)c2ccc(NC(=O)CSc3ccccc3)cc2C1=O	-11	i	2	8	-21	/	-4	16
OC(COc1ccccc1Br)CN1CCNCC1 (stereo not drawn)	-17	i	2	0	-3	-10	-7	6
CCOc1cc2c(cc1OC)C(NC(=O)C(F)(F)F)CC2=O (stereo not drawn)	-4	i	-13	-1	-18	1	-3	-5
COc1ccccc1CCNS(=O)(=O)c1cc2c3c(c1)CCN3C(=O)CC2	-9	i	3	2	-16	8	/	/

Source: PubChem BioAssay (several laboratories)
